Vaccinia stage – Vaccinia orthopox stage-specific inhibition; Vaccinia-infected cells, mCherry/Venus stage reporter fluorescence; stronger effect = lower value; some inactives read as strong as hits; activity change (mCherry), % (concentration not given with the values); 0.01% of 89,000 active;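 active = mCherry past -33% and 40 or more points under the early reporter, replicates agreeing; inconclusive = past -33% without that gap or agreement; tested in A549 cells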;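 note: scaled between vehicle wells and reference inhibitor wells; 23 nL library stock went into each well; one replicate is shown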
Vaccinia stage Venus – recorded beside Vaccinia stage, whose call it bears; activity change (Venus), %; measured here: Venus reporter, other viral stage;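 negative = less Venus signal; first of two replicates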
Starred values were filed as active, the others as inactive; ? = inconclusive; / = not tested or not shown. A portion of the library. The share of hits here may be higher or lower than overall.

Under each structure: Vaccinia stage | Vaccinia stage Venus
- CO[C@@H]1CN(C)C(=O)c2ccc(NC(=O)Nc3cc(F)ccc3F)cc2OC[C@H](C)N(C)C[C@H]1C
→ -18 | -3
- C[C@H]1CN([C@@H](C)CO)C(=O)c2cc(C#CC3(O)CCCC3)cnc2O[C@@H]1CN(C)Cc1ccccn1
→ 3 | -3
- C/C=C/c1ccc([C@@H]2[C@H](CO)N(CC3CCCC3)C23CN(S(=O)(=O)CC)C3)cc1
→ -6 | 2
- C[C@@H]1CN([C@H](C)CO)C(=O)Cc2cc(NC(=O)C3CC3)ccc2O[C@H]1CN(C)C(=O)Nc1ccc(F)cc1
→ 10 | 10
- C[C@@H]1CN([C@@H](C)CO)C(=O)CCCn2cc(nn2)CO[C@H]1CN(C)Cc1ccc(C(=O)Nc2ccccc2N)cc1
→ -3 | -1
- C[C@@H]1CN([C@H](C)CO)S(=O)(=O)c2ccc(C#CC3CCCCC3)cc2O[C@@H]1CN(C)C
→ ? | /
- C[C@@H]1CN([C@H](C)CO)C(=O)c2cccc(NC(=O)c3ccncc3)c2O[C@H]1CN(C)S(C)(=O)=O
→ 11 | 2
- C[C@@H](NC(=O)C[C@H]1CC[C@H](NC(=O)CN2CCOCC2)[C@@H](CO)O1)c1ccccc1
→ 2 | -2
- CC(C)NC(=O)N[C@@H]1CC[C@@H](CCNC(=O)C2CC2)O[C@H]1CO
→ 6 | 10
- COc1ccccc1-c1cn(CC[C@H]2CC[C@H](NS(=O)(=O)c3ccccc3C)[C@H](CO)O2)nn1
→ -20 | -14
- CC(C)NC(=O)N1CC2(C1)[C@H](c1ccccc1)[C@H](CO)N2C(=O)C1CCC1
→ -1 | -2
- C[C@H](O)C#Cc1ccc([C@@H]2[C@H](CO)N3CCCCN(C(=O)c4ccncc4)C[C@@H]23)cc1
→ 27 | 21
- C[C@H]1CN([C@@H](C)CO)C(=O)c2cc(NC(=O)Nc3ccc(F)cc3)ccc2O[C@H]1CN(C)Cc1ccc(Oc2ccccc2)cc1
→ -32 | -19
- O=C(NC1CCC1)[C@@H]1N[C@@H]2c3ccc(-c4cccc(F)c4)c(=O)n3C[C@@H]2[C@H]1CO
→ 26 | 12
- C[C@@H]1CN([C@@H](C)CO)C(=O)c2c(c3ccccc3n2C)-c2ccccc2CO[C@@H]1CN(C)S(=O)(=O)c1ccc(F)cc1
→ ? | /

Complete entries from above. Order of values: Vaccinia stage	Vaccinia stage Venus
`O=C(NC1CCC1)[C@@H]1N[C@@H]2c3ccc(-c4cccc(F)c4)c(=O)n3C[C@@H]2[C@H]1CO` across the screens: 26	12
`C[C@@H]1CN([C@H](C)CO)C(=O)Cc2cc(NC(=O)C3CC3)ccc2O[C@H]1CN(C)C(=O)Nc1ccc(F)cc1` across the screens: 10	10

Further compounds follow.
Under each structure: Vaccinia stage | Vaccinia stage Venus
- CCC(=O)Nc1ccc2c(c1)C(=O)N(C)C[C@H](OC)[C@@H](C)CN(C(=O)COC)[C@H](C)CO2
→ 29 | 19
- O=C(CN1CCOCC1)NCC[C@H]1CC[C@@H](NC(=O)Nc2ccc(Cl)cc2)[C@@H](CO)O1
→ 3 | 7
- Cc1noc(C)c1NC(=O)N(C)C[C@@H]1OCCCC[C@@H](C)Oc2ccc(NC(=O)C3CCCCC3)cc2C(=O)N([C@@H](C)CO)C[C@H]1C
→ 17 | 9
- CC(C)NC(=O)Nc1ccc2c(c1)CC(=O)N([C@H](C)CO)C[C@@H](C)[C@H](CN(C)S(=O)(=O)c1cn(C)cn1)O2
→ 12 | 7
- CCCC#Cc1ccc2c(c1)O[C@H](CN(C)C(=O)c1ccccn1)[C@H](C)CN([C@@H](C)CO)S2(=O)=O
→ -10 | -6
- O=C(Nc1ccc2c(c1)OCO2)N1[C@@H]2CNC[C@H]1C2c1ccc(-c2ccncc2)cc1 (stereo not given in full)
→ -9 | 7
- C[C@H]1CN([C@@H](C)CO)C(=O)c2cc(C#CC3(O)CCCC3)cnc2O[C@H]1CN(C)Cc1cccnc1
→ 15 | 5
- COc1ccc(C(=O)Nc2ccc3c(c2)C(=O)N(C)C[C@@H](OC)[C@@H](C)CN(C(C)=O)[C@H](C)CO3)cc1
→ -13 | -12
- C[C@H]1CN([C@@H](C)CO)C(=O)c2cc(NS(=O)(=O)c3cccs3)ccc2O[C@H]1CN(C)Cc1ccc(C(=O)Nc2ccccc2N)cc1
→ -4 | -6
- C[C@@H]1CN([C@H](C)CO)C(=O)c2cccc(NS(=O)(=O)c3cccs3)c2O[C@@H]1CN(C)Cc1ccc(C(F)(F)F)cc1
→ -14 | -8
- O=C(c1cccc(F)c1)N1CC(=O)N2[C@H](CO)[C@H](c3ccc(-c4cccnc4)cc3)[C@H]2C1
→ -1 | 1
- COc1ccc(NC(=O)N[C@H]2CC[C@H](CCNS(=O)(=O)c3ccccc3F)O[C@@H]2CO)cc1
→ 1 | 1
- C[C@@H]1CN([C@H](C)CO)C(=O)c2cc(NC(=O)C3CCCCC3)ccc2O[C@@H](C)CCCCO[C@@H]1CN(C)S(=O)(=O)c1cccs1
→ -4 | -9
- COc1ccc(CN(C)C[C@@H]2OCCCC[C@H](C)Oc3ccc(NC(=O)Nc4ccc(C(F)(F)F)cc4)cc3C(=O)N([C@H](C)CO)C[C@H]2C)cc1
→ ? | /
- C[C@H]1CN([C@@H](C)CO)C(=O)c2cccc(NC(=O)c3cnccn3)c2O[C@@H]1CN(C)Cc1ccc(C(F)(F)F)cc1
→ -4 | -2
- CCNC(=O)[C@@H]1[C@@H](CO)[C@@H]2Cn3c(ccc(-c4ccccc4)c3=O)[C@H]1N2Cc1cccnc1
→ 15 | 8
- COc1ccc2c3c(n(C)c2c1)[C@@H](CO)N(CC1CCCCC1)CC31CCN(C(C)=O)CC1
→ 8 | 8
- C[C@H]1CN([C@@H](C)CO)C(=O)c2cc(C#Cc3ccccc3F)cnc2O[C@@H]1CN(C)C
→ -19 | -20
- CCC(=O)N1CC2(C1)[C@H](c1ccc(-c3ccc(F)cc3)cc1)[C@H](CO)N2C(=O)CC
→ 4 | 6
- O=C(C[C@H]1CC[C@H]2[C@@H](COC[C@@H](O)CN2Cc2ccc(Cl)cc2)O1)NCCc1ccccc1
→ -22 | -14
- Cc1ccc(S(=O)(=O)Nc2cccc3c2O[C@H](CN(C)C(=O)NC(C)C)[C@@H](C)CN([C@H](C)CO)C3=O)cc1
→ -5 | -11
- CS(=O)(=O)N1CC(=O)N2[C@@H](CO)[C@H](c3ccc(C#Cc4ccccc4)cc3)[C@@H]2C1
→ 8 | 7
- O=C(Nc1ccc(F)cc1)N1CCCCN2[C@H](CO)[C@H](c3ccc(-c4ccccc4F)cc3)[C@@H]2C1
→ -7 | -5
- COc1cccc(-c2cn(CC[C@H]3CC[C@H](NS(=O)(=O)Cc4ccccc4)[C@H](CO)O3)nn2)c1
→ -4 | 4
- CC(C)NC(=O)Nc1ccc2c(c1)CC(=O)N([C@H](C)CO)C[C@H](C)[C@H](CN(C)Cc1ccncc1)O2
→ 3 | 2
- O=C(C1=C[C@@H](C2CC2)C[C@@H](OCCCCO)O1)N1CCCCCCC1
→ 26 | 18
- COc1ccc(NC(=O)Nc2ccc3c(c2)[C@@H]2C[C@@H](CC(=O)N4CCc5ccccc5C4)O[C@H](CO)[C@@H]2O3)cc1
→ ? | /
- C[C@@H]1CN([C@H](C)CO)C(=O)c2cccc(NC(=O)c3ccc(-c4nccs4)cc3)c2O[C@H]1CN(C)Cc1ccccc1
→ -31 | -28
- CO[C@H]1CN(C)C(=O)c2ccc(NC(=O)c3cccc(F)c3)cc2OC[C@@H](C)NC[C@@H]1C
→ 0 | -4
- C[C@@H]1CN([C@H](C)CO)C(=O)c2cccc(NC(=O)NC3CCCCC3)c2O[C@@H]1CN(C)S(=O)(=O)c1cn(C)cn1
→ 8 | 5

Additional results.
mol | Vaccinia stage | Vaccinia stage Venus
C/C=C/c1cnc2c(c1)C(=O)N([C@H](C)CO)C[C@H](C)[C@@H](CN(C)C(=O)Nc1ccc(C(F)(F)F)cc1)O2 | 1 | -9
Cc1ccc(S(=O)(=O)Nc2ccc3c(c2)C(=O)N([C@H](C)CO)C[C@H](C)[C@H](CN(C)CC2CC2)OCCCC[C@@H](C)O3)cc1 | 8 | 7
CCS(=O)(=O)N1CCCCN2[C@@H](CO)[C@@H](c3ccc(C#CC(C)(C)O)cc3)[C@@H]2C1 | 18 | 17
CCNC(=O)[C@H]1[C@H](CO)[C@H]2Cn3c(ccc(-c4ccccc4OC)c3=O)[C@H]2N1S(C)(=O)=O | 3 | 11
CN1C(=O)c2cc(NC(=O)C3CCOCC3)ccc2OC[C@H]2O[C@@H](CC(=O)NCc3ccccc3F)CC[C@@H]21 | 8 | 4
CC(C)C(=O)Nc1ccc2c(c1)C(=O)N(C)[C@@H]1CC[C@H](CC(=O)O)O[C@@H]1CO2 | 7 | 5
Cc1ccc(S(=O)(=O)Nc2ccc3c(c2)CC(=O)N([C@@H](C)CO)C[C@H](C)[C@@H](CN(C)Cc2ccncc2)O3)cc1 | 13 | -1
C[C@@H]1CCCCO[C@@H](CN(C)S(=O)(=O)c2ccccc2)[C@@H](C)CN([C@@H](C)CO)C(=O)c2cc(NC(=O)Nc3ccc4c(c3)OCO4)ccc2O1 | 30 | 18
O=C1CN(S(=O)(=O)c2ccccc2)C[C@H]2[C@@H](c3ccc(C#Cc4ccccc4)cc3)[C@@H](CO)N12 | ? | /
CN(C)C(=O)C[C@H]1C[C@H]2c3cc(NC(=O)c4cccnc4)ccc3O[C@H]2[C@H](CO)O1 | 13 | 14
C[C@H](CO)N1C[C@H](C)[C@H](CN(C)C(=O)Nc2cccc3ccccc23)Oc2ncc(C#Cc3ccc(C(F)(F)F)cc3)cc2C1=O | -14 | -5
CO[C@H]1CN(C)C(=O)c2ccc(NC(=O)C3CCOCC3)cc2OC[C@H](C)N(Cc2cccnc2)C[C@@H]1C | 13 | 12
COCCNC(=O)[C@H]1[C@H](CO)[C@H]2Cn3c(ccc(-c4ccccc4F)c3=O)[C@@H]1N2S(C)(=O)=O | 2 | -5
COc1ccc2c3c(n(C)c2c1)[C@@H](CO)N(CC1CC1)CC31CCN(C(=O)CC2CC2)CC1 | 1 | 2
Cc1noc(C)c1S(=O)(=O)Nc1ccc2c(c1)C(=O)N([C@H](C)CO)C[C@H](C)[C@H](CN(C)CC1CC1)O2 | 11 | 1
CO[C@H]1CN(C)C(=O)c2cc(NC(=O)Nc3c(C)noc3C)ccc2OC[C@@H](C)N(CCC(F)(F)F)C[C@@H]1C | -11 | -7
C[C@@H]1CN([C@H](C)CO)C(=O)Cc2cc(NC(=O)Nc3ccccc3)ccc2O[C@@H]1CN(C)Cc1ccc2c(c1)OCO2 | -14 | -7
COCC#Cc1cnc2c(c1)C(=O)N([C@H](C)CO)C[C@H](C)[C@H](CN(C)Cc1ccccc1F)O2 | 4 | 1
C[C@@H]1CN([C@H](C)CO)C(=O)c2cc(C#CC3CCCC3)cnc2O[C@@H]1CN(C)C(=O)Cc1ccccn1 | 2 | -6
COc1ccc(NC(=O)Nc2ccc3c(c2)C(=O)N([C@H](C)CO)C[C@H](C)[C@@H](CN(C)C(=O)CCCN(C)C)OCCCC[C@@H](C)O3)cc1 | 27 | 6
COc1ccc(C#Cc2cnc3c(c2)C(=O)N([C@H](C)CO)C[C@H](C)[C@H](CN(C)C(=O)Nc2cccc4ccccc24)O3)cc1OC | ? | /
Cc1ccc(S(=O)(=O)Nc2ccc3c(c2)C(=O)N([C@@H](C)CO)C[C@H](C)[C@@H](CN(C)S(=O)(=O)c2cccs2)OCCCC[C@H](C)O3)cc1 | ? | /
O=C(Nc1ccccc1F)N1CCCCN2[C@@H](CO)[C@H](c3ccc(-c4cccnc4)cc3)[C@@H]2C1 | 10 | -2
COc1ccc(NC(=O)N(C)C[C@H]2Oc3c(NS(=O)(=O)c4ccccc4)cccc3C(=O)N([C@H](C)CO)C[C@@H]2C)cc1 | 24 | 23
C[C@@H]1CCCCO[C@H](CN(C)C(=O)CCC(F)(F)F)[C@H](C)CN([C@@H](C)CO)C(=O)c2cc(NC(=O)Cc3ccccc3)ccc2O1 | -22 | -11
C[C@H](CO)N1C[C@H](C)[C@@H](CN(C)Cc2ccc(Oc3ccccc3)cc2)OCc2ccccc2-c2c(n(C)c3ccccc23)C1=O | -22 | -26
C[C@@H]1CN([C@@H](C)CO)S(=O)(=O)c2ccc(-c3ccncc3)cc2O[C@H]1CN(C)C(=O)c1cccc(F)c1 | 17 | 9
CCC(=O)N(C)C[C@@H]1Oc2cc(-c3cccc(C#N)c3)ccc2S(=O)(=O)N([C@@H](C)CO)C[C@@H]1C | 16 | 3
COCCNC(=O)C[C@H]1CC[C@H]2[C@@H](COc3ccc(NC(=O)c4cc(C)on4)cc3C(=O)N2C)O1 | 4 | -4
CC(=O)N1C[C@@H]2[C@H](c3ccccc31)[C@@H](CO)N2C(=O)c1ccc(F)cc1 | 11 | 11
CC(=O)N1[C@H](CN(C(=O)c2cccc(F)c2)C(C)C)[C@@H](c2ccccc2)[C@@H]1CO | 2 | -7
CCCN1C[C@@H](C)[C@@H](OC)CN(C)C(=O)c2cc(NC(=O)C3CCOCC3)ccc2OC[C@@H]1C | 9 | 10
COc1cccc(C#Cc2cnc3c(c2)C(=O)N([C@@H](C)CO)C[C@H](C)[C@H](CN(C)C(=O)C2CCOCC2)O3)c1 | 8 | 9

Compounds listed so far with two or more sulfur atoms, in the order listed:
mol | Vaccinia stage | Vaccinia stage Venus
C[C@H]1CN([C@@H](C)CO)C(=O)c2cc(NS(=O)(=O)c3cccs3)ccc2O[C@H]1CN(C)Cc1ccc(C(=O)Nc2ccccc2N)cc1 | -4 | -6
C[C@@H]1CN([C@H](C)CO)C(=O)c2cccc(NS(=O)(=O)c3cccs3)c2O[C@@H]1CN(C)Cc1ccc(C(F)(F)F)cc1 | -14 | -8
C[C@@H]1CN([C@H](C)CO)C(=O)c2cc(NC(=O)C3CCCCC3)ccc2O[C@@H](C)CCCCO[C@@H]1CN(C)S(=O)(=O)c1cccs1 | -4 | -9
Cc1ccc(S(=O)(=O)Nc2ccc3c(c2)C(=O)N([C@@H](C)CO)C[C@H](C)[C@@H](CN(C)S(=O)(=O)c2cccs2)OCCCC[C@H](C)O3)cc1 | ? | /
